Assay outcomes: PubChem BioAssay, National Center for Advancing Translational Sciences (NCATS)
VACV mCherry inh – qHTS for Stage-Specific Inhibitors of Vaccinia Orthopoxvirus: mCherry Reporter Primary qHTS. Vaccinia virus mCherry reporter infection, fluorescence; about a quarter of the inactives have no number. Potency, µM (titrated, usually from 36.5 µM), for inactives: at the highest dose activity change, negative = inhibition, actives largely listed as inhibitors. 0.63% of 310,000 active; active = well fitted inhibition curve with a large enough effect; inconclusive = small, poorly fitted or top-dose-only effect; inactive = no such curve, though single readings can be large or run the other way; tested in A549 cells; further: nearly all actives have a fitted effect of over 35% in size; inactives centre near -10
Vaccinia Venus – qHTS for Stage-Specific Inhibitors of Vaccinia Orthopoxvirus: Venus Reporter Primary qHTS | Vaccinia virus Venus reporter expression, fluorescence | Potency, µM (top dose mostly 36.5 µM), for inactives: at the highest dose activity change, negative = inhibition, most hits filed as inhibitors | 0.46% of 330,000 active; active means well fitted inhibition curve with a large enough effect; inconclusive means small, poorly fitted or top-dose-only effect; inactive means no such curve, though single readings can be large or run the other way; tested in A549 cells; further: nearly all actives have a fitted effect of over 30% in size; inactives centre near -10
The depositor's hits bear a star; i = inactive; u = inconclusive; x = not tested or not shown; & = joins results of further samples; [ ] = remark or other dose. On the % scale 0 is the no-effect control and ±100 the full control effect; potency means the concentration at half of the fitted maximal effect.

Order of results – VACV mCherry inh	Vaccinia Venus
- NC(=O)NC(=O)C(OC(=O)CCNS(=O)(=O)c1ccccc1)c1ccccc1 (centres undefined)
    -23%	-1%
- COC(=O)C1C(=O)c2c(C)noc2CC1(C)C (centres undefined)
    i	6%
- CCC(=O)N1c2ccccc2CC1C(=O)NCc1ccccc1C (centres undefined)
    1%	4%
- CCCOc1ccc(C2C(=O)N(C3CCC(C)CC3)CC(=O)N2CCC2=CCCCC2)cc1OC (centres undefined)
    -17%	-16%
- Cc1ccsc1/C=c1\sc2ncnn2c1=O
    -15%	-8%
- O=C(COC(=O)/C=C/c1ccc(Cl)c(Cl)c1)NC1CC1
    -8%	6%
- CC(=O)NCCC(=O)N1CCCC(CNC(=O)c2ccc(-c3ccccc3)cc2)C1 (centres undefined)
    i	-11%
- Cc1nc2cc(NC(=O)[C@@H]3C[C@@H](Sc4ccccn4)CN3Cc3cccc(F)c3)ccc2s1
    -5%	8%
- CCCN1CNc2c(c(=O)[nH]c(=S)n2CCCc2ccccc2)C1
    0%	-12%
- CC(C)(C)n1nnnc1C(c1ccncc1)N(Cc1ccccc1)Cc1ccco1 (centres undefined)
    -8%	2%

Carrying on:
Order of results – VACV mCherry inh	Vaccinia Venus
- CCCCNC1=C(Br)C(=O)CC(C)(C)C1
    x	-27%
- Cc1ccc(S(N)(=O)=O)c(C)c1-n1cnnn1
    2%	2%
- COc1ccc(N2CCN(C(=O)Cc3coc4ccc(C)cc34)CC2)cc1
    -22%	-21%
- CC1CCN(C(=O)COC(=O)c2cc3ccccc3oc2=O)CC1
    -14%	-4%
- CN(C)C(CNC(=O)c1cccc(C(F)(F)F)c1)c1ccco1 (centres undefined)
    -9%	8%
- C=CCSc1nccc(-c2nn(-c3ccc(C)cc3)ccc2=O)n1
    -17%	-8%
- CCOC(=O)CCCNC(=O)COC(=O)c1cc(C)cc(C)c1
    -9%	-3%
- Cc1cc(C)nc(SCC(=O)Nc2ccnc3ccccc23)n1
    u	-10%
- CCC(=O)N1CCN(c2nc(C)nc3sc(C)c(C)c23)CC1
    -13%	-19%
- CC1CN(S(=O)(=O)c2cccc(C(F)(F)F)c2)C(C)N1C(=O)N1CCOCC1 (centres undefined)
    -7%	-13%

(continued)
Order of results – VACV mCherry inh	Vaccinia Venus
- C=CC[C@]12C=C(OC)C(=O)C(OC)=C1O[C@@H](c1ccc3c(c1)OCO3)[C@H]2C
    -9%	-3%
- O=C(Cc1ccc(NC2=NC3CS(=O)(=O)CC3S2)cc1)NCc1ccc(Cl)cc1 (centres undefined)
    i	-1%
- COC(=O)[C@H](C)N1C/C=C\COc2c(Cl)cc(Cl)cc2S1(=O)=O
    u	-13%
- COc1ccc(NS(=O)(=O)c2ccc(NS(=O)(=O)c3ccc4c(c3)OCCO4)cc2)cc1
    6%	-3%
- COc1ccc(NC(=O)CSc2nccn2C2CCCC2)cc1OC
    -11%	-16%
- CCOC(=O)c1c(NC(C)=O)no[n+]1[O-]
    x	-16%
- NC(=O)C1CC(=O)N(c2ccc(OCc3c(Cl)cccc3Cl)cc2)C1 (centres undefined)
    -1%	-9%
- COc1ccc(OCC(Cn2cnc3ccccc32)OC(C)=O)cc1 (centres undefined)
    i	1%
- NC(=O)SCC(=O)Nc1cccc(Cl)c1
    -8%[1.46 µM]	-15%
- O=C(Oc1ccccc1C(=O)O)c1ccccc1O
    -14%	-5%

Other compounds follow:
Order of results – VACV mCherry inh	Vaccinia Venus
- COc1ccc(OC)c(NC(=O)C(C#N)=Cc2ccco2)c1
    -10%	7%
- N#Cc1nc(-c2ccco2)oc1N1CCN(C(c2ccccc2)c2ccccc2)CC1
    -11%	-8%
- CC(C)OCCCn1c(SCC(=O)N2CCCC2=O)nc2ccccc2c1=O
    -10%	-13%
- CS(=O)(=O)Nc1cc(C(=O)N2CCNC(=O)C2)c2c(c1)ncn2CCc1ccccc1
    i	0%
- Cc1ccc(CNC(=O)CCCC(=O)c2ccccc2)cc1
    -4%	-20%
- COc1ccccc1C(=O)Nc1nc(N)n(-c2ccccc2)n1
    i	-26%
- CC(=O)NC(Cc1ccccc1)C(=O)Oc1ccc2ccccc2c1 (centres undefined)
    u	-17%
- COc1ccc(/C=N/NC(=O)CCc2n[nH]c(=O)[nH]c2=O)cc1O
    i	-14%
- COc1ccc(OC)c(NC(=O)Nc2cc(C(=O)O)ccc2C)c1
    -13%	7%
- Cc1ccc(C(=O)N2CCN(c3ccccn3)CC2)cc1Cl
    i	-9%

The listing continues.
Order of results – VACV mCherry inh	Vaccinia Venus
- CSCCC(NC(=O)c1cccc(C)c1)C(=O)OCC(=O)NC(=O)c1cccn1C (centres undefined)
    0%	7%
- Nc1cccc(C(=O)Nc2ccc3nc(-c4cccnc4)[nH]c3c2)c1
    -16%	-12%
- CCCc1nnc(NC(=O)NCCN2C(=O)C3C4C=CC(C4)C3C2=O)s1 (centres undefined)
    i	-16%
- Cc1nn(C)c(C)c1NS(=O)(=O)c1ccc(Cl)cc1
    i	-7%
- Cc1n[nH]c(=O)c2c(NC(=O)COC(=O)Cc3ccc(Cl)cc3Cl)oc(C)c12
    -15%	-2%
- CC(C)[C@]12O[C@H]1[C@@H]1O[C@]13[C@]1(O[C@H]1C[C@H]1C4=C(CC[C@@]13C)C(=O)OC4)[C@@H]2O
    -18%[60.7 µM]	-12%[60.7 µM]
- O=C(Nc1cc(-c2nc3ccccc3o2)ccc1Cl)c1ccc(N2CCCCC2)c([N+](=O)[O-])c1
    -2%	0%
- COc1cccc(NC=C2C(=O)OC3(CCCCC3)OC2=O)c1
    -3%	-12%
- CC(Sc1nnc2c(n1)[nH]c1ccccc12)C(=O)NC1CCCCC1 (centres undefined)
    -9%	2%
- Cc1nn(C)cc1CN(C)C(=O)c1nn2c(c1Br)NC(c1cccs1)CC2C(F)(F)F (centres undefined)
    i	4%

Already shown: entries from further up.
Order of results – VACV mCherry inh	Vaccinia Venus
- Cc1n[nH]c(=O)c2c(NC(=O)COC(=O)Cc3ccc(Cl)cc3Cl)oc(C)c12
    -15%	-2%
- CC(C)[C@]12O[C@H]1[C@@H]1O[C@]13[C@]1(O[C@H]1C[C@H]1C4=C(CC[C@@]13C)C(=O)OC4)[C@@H]2O
    -18%[60.7 µM]	-12%[60.7 µM]
- O=C(Nc1cc(-c2nc3ccccc3o2)ccc1Cl)c1ccc(N2CCCCC2)c([N+](=O)[O-])c1
    -2%	0%
- COc1cccc(NC=C2C(=O)OC3(CCCCC3)OC2=O)c1
    -3%	-12%
- CC(Sc1nnc2c(n1)[nH]c1ccccc12)C(=O)NC1CCCCC1 (centres undefined)
    -9%	2%
- Cc1nn(C)cc1CN(C)C(=O)c1nn2c(c1Br)NC(c1cccs1)CC2C(F)(F)F (centres undefined)
    i	4%

Additional structures:
Order of results – VACV mCherry inh	Vaccinia Venus
- CCn1c2c(c(=O)n3ncc(C(=O)Nc4cccc(Cl)c4C)c13)CN(Cc1ccc(OC)cc1)CC2
    -14%[7.34 µM]	-6%
- COc1ccc(CNC(=O)CSc2nc(-c3ccc(OC)cc3)cc(C(F)(F)F)n2)cc1
    -10%	-20%
- O=C(CCN1CCN(c2ccc(F)cc2)CC1)Nc1ccc(F)cc1
    x	-28%
- Cc1nc(NC(=O)/C=C/c2ccc(F)cc2)sc1C(=O)N(C)C
    i	-6%
- CC(=O)c1cccc(N2C(=O)C3C(C(=O)Nc4cc(C)on4)C4(C)C=CC3(O4)C2C(=O)NC(C)(C)C)c1 (centres undefined)
    -1%	-11%
- O=C(O)CCn1cc(-c2ccc(Cl)cc2)nc1-c1ccncc1
    i	-8%
- CCNC(=O)OCC(CC)NC(=O)OCC(C)C (centres undefined)
    x	-11%
- CCCC12CN3CCN(C1)CC(CCC)(C3)C2=O
    i	-15%
- CCOC(=O)c1nn(-c2ccc(F)cc2)c2nc(-c3ccccc3)c(C#N)c(=O)n12
    -10%	-14%
- CCOC(=O)/C(C(N)=NCC(C)C)=C(/O)c1ccccc1
    5%	7%

3 entries from above, sorted by molar mass, smallest number first.
Order of results – VACV mCherry inh	Vaccinia Venus
- CCOC(=O)/C(C(N)=NCC(C)C)=C(/O)c1ccccc1
    5%	7%
- O=C(O)CCn1cc(-c2ccc(Cl)cc2)nc1-c1ccncc1
    i	-8%
- COc1ccc(CNC(=O)CSc2nc(-c3ccc(OC)cc3)cc(C(F)(F)F)n2)cc1
    -10%	-20%

More compounds
Order of results – VACV mCherry inh	Vaccinia Venus
- O=C(Nc1cc(C(F)(F)F)ccc1N1CCCC1)c1ccc2c(c1)OCO2
    -13%	-9%
- COC(=O)c1ccccc1NC(=O)c1cccc(NC(=O)CSCc2ccccc2)c1C
    -18%	-18%
- CCCCOC(=O)c1cc(=O)[nH]c2ccccc12
    i	-18%
- O=C(NCCc1ccccc1F)c1ccc2c(c1)OCCO2
    -7%	-3%
- CCCc1nnc2c(N(C)S(=O)(=O)c3ccc(C)cc3)nc3ccccc3n12
    i	-13%
- OCCCNc1ncnc2c1ncn2[C@H]1CN(Cc2cccs2)C[C@@H](CO)O1
    37%[activator]	-6%
- CCOC(=O)N(C)C[C@@H]1OCc2cnnn2CCCC(=O)N([C@H](C)CO)C[C@H]1C
    i	-3%
- CN(CC(=O)Nc1ccc(Cl)cc1)C(=O)CNC(=O)c1ccc(Br)o1
    i	-14%
- COC(=O)C(C)Sc1nc(N)c(NC(=O)c2ccco2)c(=O)[nH]1 (centres undefined)
    4%	0%
- O=C1c2ccccc2C(=O)N1CCC(O)C[N+](=O)[O-] (centres undefined)
    0%	-2%

Other entries follow:
Order of results – VACV mCherry inh	Vaccinia Venus
- CCOC(=O)C1(Cc2ccccc2)CCN(Cc2cc(=O)c3ccccc3[nH]2)CC1
    -9%	-22%
- Clc1ccc(-c2csc(N3CCc4ccccc4C3)n2)cc1
    -1%	-6%
- COc1cc(C(=O)NCCOc2cc(C)cc(C)c2)c(Br)c(OC)c1OC
    x	u
- Cc1cc(N2C(=O)C=CC2=O)c([N+](=O)[O-])cc1C
    i	-5%
- COc1ccc(C(=O)NC(=S)Nc2ccc(S(=O)(=O)Nc3cc(OC)ncn3)cc2)cc1
    -10%	-14%
- Cc1ccc(C(F)(F)F)cc1NC(N)=S
    -9%	-9%
- N#CN=c1snc(-c2ccccc2Cl)n1-c1ccc(F)cc1
    u	u
- C=CCSc1nc2c(c(-c3ccsc3)c1C#N)CN(C)CC2
    -6%	2%
- COc1ccc(C(CNC(=O)c2oc3ccc(OC)cc3c2C)N2CCCC2)cc1 (centres undefined)
    -26%	-21%
- CCOC(=O)C1CCC(CN(Cc2ccc(Cl)cc2)S(=O)(=O)c2cccc(Cl)c2C)CC1 (centres undefined)
    9%	10%

Following part:
Order of results – VACV mCherry inh	Vaccinia Venus
- CCc1cccc(C)c1N1C(=O)CN(Cc2ccccc2)C1=S
    i	-2%
- CC1(C(=O)NCc2cccs2)CCN1C(=O)Cc1ccc(Cl)cc1Cl (centres undefined)
    i	2%
- CCN1/C(=C2\C(=O)N(C)C(=S)N2C)C=Cc2cc(OC)ccc21
    -28%	-7%
- CCOc1ccc(S(=O)(=O)NCC(=O)N(C)Cc2cccnc2)cc1
    x	7%
- COc1ccc(NS(=O)(=O)c2cccc(C(=O)NCC(c3cccs3)N3CCOCC3)c2)cc1 (centres undefined)
    -20%	-9%
- Cc1ccc(NC(=O)c2cccc3c2C(=O)N(C2CCCCC2)C3)c(Cl)c1
    -6%	-4%
- COc1cc2nc(Nc3cccc(C)c3)nc(N)c2cc1OC
    -13%	-7%
- Cc1cc(C)cc(NC(=O)CCc2nnc3n(CC(C)C)c(=O)c4ccccc4n23)c1
    -13%	-14%
- O=C(Cc1cccs1)N/N=C/C=C/c1ccco1
    -10%	-12%
- CS(=O)(=O)c1ccc(-n2nnc3ccccc32)c([N+](=O)[O-])c1
    -28%	-18%

(continued)
Order of results – VACV mCherry inh	Vaccinia Venus
- COc1ccc(C(=O)Nc2nc3c(s2)CCCC3)cc1S(=O)(=O)N1CCCc2ccccc21
    11µM*	2%
- CCCc1nc2ccccc2n1CCc1ccccc1
    i	-3%
- COC(/C=C/Nc1ccc(Cl)cc1)=C(C#N)C#N
    i	5%
- O=C(NNC(=O)c1cccnc1SCc1cccc([N+](=O)[O-])c1)c1ccccn1
    4µM*	u
- CNc1cc(NS(=O)(=O)c2ccc(N)cc2)nc(NC)n1
    -13%&-26%	-8%&-11%
- COc1ccc(NC(=O)c2ccc(-c3ccc(-c4noc(C)n4)cc3C)cc2)cc1OCCN(C)C
    -15%	-26%
- CC(CN1C(C)CCCC1C)OC(=O)c1ccc(F)cc1 (centres undefined)
    0%	-17%
- CN(CC(=O)N1CCCCCC1)S(=O)(=O)c1cccc2cccnc12
    7%	0%
- CN(c1ccccc1)S(=O)(=O)c1ccc(C(=O)N2CCc3ccccc3C2)cc1
    i	-12%
- COc1ccc(OC(C)C(=O)N(C)Cc2nc(-c3cccc(C)c3)no2)cc1 (centres undefined)
    0%	-6%

More results
Order of results – VACV mCherry inh	Vaccinia Venus
- COc1ccc(-n2c(O)c(C(C)=NCc3ccc4c(c3)OCO4)c(=O)[nH]c2=O)cc1
    -6%	-17%
- O=C1CC(c2ccccc2)=C(c2ccccc2)C1c1ccccc1 (centres undefined)
    -9%	-12%
- CCN(CC)C(=O)Oc1ccc2cc(Br)ccc2c1
    -7%	-22%
- O=C(NCc1nnnn1-c1ccc(F)cc1)c1ccc(S(=O)(=O)N2CCOCC2)cc1
    i	-14%
- NC(=O)Nc1ccc(C(=O)OCC(=O)Nc2ccc(Cl)cn2)cc1
    -6%	-11%
- O=[N+]([O-])c1ccc2c(c1)C(N1CCOCC1)/C(=C/COc1ccc3ccccc3c1Br)O2 (centres undefined)
    x	-10%
- O=[N+]([O-])c1cc(C=Nc2ccc3ccccc3c2)ccc1Br
    -17%	-8%
